Screening results deposited in PubChem BioAssay by several laboratories.
Vif TR-FRET – inhibitors of Vif binding to APOBEC3G peptide, primary screen, biochemical, TR-FRET, GST-Vif 1-94, biotin-A3G peptide, dose response retest (AID 1117319). TR-FRET GST-Vif / biotin-A3G peptide binding; higher % means a stronger effect; test concentration not given here; strong numbers were not always called active. hit rate 0.57% among 260,000. inhibition, %, or IC50 in µM where a hit was titrated. Virion infectivity factor (Human immunodeficiency virus type 1 group M subtype B (isolate …;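 active = above the screen mean plus three standard deviations and confirmed in dose response; inconclusive = results disagree or hit not tested in dose response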;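 note: Vif residues 1-94 fused to GST binding biotinylated APOBEC3G peptide 110-148; 0% = full assay without inhibitor and 100% = GST in place of GST-Vif; retest series ran down from 100 µM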
Ecoli rRNA inh – reduced GFP signal of wild-type E. coli, primary screen, bacterial rRNA inhibitor project, GFP/RFP fluorescence, OD600, single point; E. coli WT GFP vs humanized-ribosome RFP mutants, 24 h; stronger effect = lower value; DMSO median 0, no signal -100; GFP signal change (wild-type ribosome), % (no concentration beside the values); hit rate 1.6% among 350,000;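 active = significant combined selectivity score with lowered wild-type GFP, culture density cut under 30%, mutant RFP and density less affected; inactive = any of these conditions unmet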; note: one replicate is shown; some compounds called inactive have numbers as strong as hits
MLL AF4-AF9 inh – inhibitors of AF4 peptide binding to AF9, primary screen, biochemical, AlphaScreen, biotin-AF4 peptide, FLAG-AF9, single point | hit rate 0.47% among 350,000 | inhibition, % at 10 µM | AID 651704, 2012 | Protein AF-9 (Homo sapiens), P42568;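 active = every replicate reaching a set inhibition limit, whatever the replicate mean, cut at about 25% in these data; inconclusive = mean inhibition reaches that limit but some replicates miss it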;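 note: 0% = plate neutral control median and 100% = total signal loss; the record names both 10 and 1 µM as test concentration; the first replicate is given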
Target sequence (P42568 whole entry, looked up): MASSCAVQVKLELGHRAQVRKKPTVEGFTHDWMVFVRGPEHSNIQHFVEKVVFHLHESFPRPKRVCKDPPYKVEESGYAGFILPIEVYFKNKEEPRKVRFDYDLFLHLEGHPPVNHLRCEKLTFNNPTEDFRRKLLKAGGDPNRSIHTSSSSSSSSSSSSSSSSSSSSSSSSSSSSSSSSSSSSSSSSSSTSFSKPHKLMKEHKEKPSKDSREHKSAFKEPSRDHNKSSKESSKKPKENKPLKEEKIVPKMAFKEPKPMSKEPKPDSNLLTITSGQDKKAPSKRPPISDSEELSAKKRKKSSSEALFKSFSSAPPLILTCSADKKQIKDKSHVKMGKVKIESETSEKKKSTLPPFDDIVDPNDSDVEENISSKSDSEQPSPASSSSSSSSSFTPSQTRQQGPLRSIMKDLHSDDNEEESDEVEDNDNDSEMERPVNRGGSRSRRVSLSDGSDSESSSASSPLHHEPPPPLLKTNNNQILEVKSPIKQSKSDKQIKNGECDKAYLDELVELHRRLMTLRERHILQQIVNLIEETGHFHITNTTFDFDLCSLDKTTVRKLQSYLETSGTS
T cruzi repl – inhibitors of intracellular T. cruzi growth, primary screen, luminescence, NIH3T3 host cells; T. cruzi beta-gal in NIH3T3, 90 h; inhibition, % (concentration not given with the values); hit rate 1.4% among 300,000;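 active = mean inhibition across valid replicates above about 55%, limit read from the data; inconclusive = mean below that limit but half or more replicates reach it; inactive = mean below it, under half of replicates reach it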;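 note: signal also drops with host cell toxicity which is not excluded here; 0% = plate median of DMSO wells and 100% = zero luminescence signal; higher percent means less beta-gal luminescence so fewer parasites; stock transfer was 50 nL into about 50 µL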
A1 inh – caspase 3/7 activation in MEF A1-2A-BIM cells, primary screen, A1 inhibitor project, cell-based, luminescence, HTS. Caspase-Glo 3/7 luminescence, 3 h; percent of clofoctol response, vehicle zero. caspase activation, % (concentration not given with the values). hit rate 0.066% among 330,000;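 active = over half of replicate activation scores above 10%, or exactly half above 10 with the replicate mean above 10; inconclusive = replicate mean below 10 yet half the replicates above 10; inactive = over half of replicates below 10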;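 note: wells of about 30 µL received 50 nL stock; many hits fall short of the cut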
Beta cell apopt – inhibitors of cytokine-induced beta cell apoptosis, primary screen, luminescence. INS-1E cytokine-induced death, ATP luminescence, 48 h; percent of positive-control rescue, neutral wells zero. protection from apoptosis, % (no concentration beside the values). hit rate 0.8% among 300,000. AID 435005, 2010;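 active = all replicates at 75% or more, or half of them and the mean; inconclusive = half reach 75% but not the mean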;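 note: 0% = cytokine-treated negative control wells and 100% = positive control rescue; higher means more ATP so stronger rescue from cytokine killing; wells of about 40 µL received 100 nL stock; the first replicate is given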
Calb FLC – C. albicans growth inhibition with fluconazole, primary screen, CaCi-2 strain, Alamar Blue fluorescence; C. albicans CaCi-2 (fluconazole-resistant clinical isolate) + fluconazole, 48 h; growth inhibition, % (concentration not given with the values); hit rate 0.57% among 300,000; AID 1979, 2009;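 active = most replicates above 75%; inconclusive = exactly half above 75%; inactive = most below 75%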;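 note: all wells also contain fluconazole at 8 µg/ml as a sub-toxic cotreatment; 0% = median of DMSO wells and 100% = median of geldanamycin control wells; wells of about 8 µL received 7.5 nL stock; the first replicate is given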
RanGTP-Impb inh – inhibitors of RanGTP-importin-beta interaction, primary screen, biochemical, FRET, CFP-Ran, YFP-importin-beta, homogeneous. Ran GTPase (GTP-bound) - importin-beta complex. cell-free CFP-Ran/YFP-importin-beta FRET ratio. inhibition, % (no concentration beside the values). hit rate 1.1% among 300,000. AID 2216, 2009;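 active = most replicates above 15%; inconclusive = exactly half above 15%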;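 note: 0% = DMSO wells and 100% = Ran loaded with GDP instead of GTP; wells of about 40 µL received 100 nL stock; the first replicate is given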
Ecoli rRNA inh OD600 – second read-out of Ecoli rRNA inh, no call of its own (marks repeat the call); OD600 change, %; measured here: OD600 growth;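 optical density of the mix in the first replicate; 0 = DMSO median and -100 = no signal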
Ecoli rRNA inh RFP – recorded beside Ecoli rRNA inh, whose call it bears; RFP signal change, %; measured here: RFP humanized mutant strains;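 first replicate; 0 = DMSO median and -100 = no signal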
The depositor's hits bear a star; ? = inconclusive; nt = no result given.

entry | Molecule | Vif TR-FRET | Ecoli rRNA inh | Ecoli rRNA inh OD600 | Ecoli rRNA inh RFP | MLL AF4-AF9 inh | T cruzi repl | A1 inh | Beta cell apopt | Calb FLC | RanGTP-Impb inh
1 | COC(=O)CC(=O)c1ccc2c(c1)OCO2 | nt | 2 | 10 | -4.4 | 0.3 | -30 | 0.5 | 0 | -3 | -0.9
2 | O=S(=O)(c1ccccc1)N1CCN2CCCC2C1 (stereo not drawn) | nt | 9 | 6 | 2.4 | -3.1 | -6 | ? | -3 | -10 | -2.8
3 | Cc1cccc(OCC(=O)N2CCN(Cc3ccc([N+](=O)[O-])cc3)CC2)c1 | -6% | -6 | -1 | -0.1 | 1.8 | 21 | 1.2 | 1 | -7 | 2.0
4 | CN1CCN(c2ccccc2N)CC1 | 8% | nt | nt | nt | nt | 1 | 0.0 | 0 | 2 | 8.0
5 | COc1ccc(C2CN(C)CC2C(=O)c2ccc(C)cc2)cc1Cl (stereo not drawn) | nt | -28* | -2.8* | 1.3* | 5.7 | 17 | 0.1 | -10 | 7 | -3.3
6 | CCOC(=O)CC1=C(C(=O)OCC)C2(C(=O)N1)C(C(=O)OC)=C(N)Oc1ccccc12 (stereo not drawn) | 0% | nt | nt | nt | nt | -16 | 0.3 | -2 | -12 | -11
7 | O=[N+]([O-])c1ccc(NCCCN2CCOCC2)c2ncccc12 | -6% | 12 | -1 | -0.3 | 1.6 | 10 | 0.5 | -2 | -10 | 6.3
8 | CN(C)C(=O)Oc1ccc(-c2cn3cc(Cl)ccc3n2)cc1 | 30% | 1 | -2 | -1.8 | 2.9 | 5 | -7.9 | 27 | -33 | 0.8
9 | Cc1cc(C)c(NC2=NCCCS2)c(C)c1 | 4% | nt | nt | nt | nt | -6 | 0.5 | -3 | -47 | -0.5
10 | CCOC(=O)c1c(C)c(C(=O)N2CCC3(CC2)OCCO3)c(C)n1CC | -1% | nt | nt | nt | nt | -12 | -0.3 | 0 | ? | 5.2
11 | O=C1CN(C(=O)COC(=O)Cc2ccccc2)c2ccccc2N1 | 19% | 15 | 13 | 0.8 | -0.6 | 7 | 1.1 | -5 | -1 | -1.1
12 | CCCCCCOC(=O)c1ccccc1N | -6% | nt | nt | nt | nt | -4 | 0.1 | -8 | -1 | 4.3
13 | N#Cc1ccc(Cn2cc(C=O)c3ccccc32)cc1 | nt | -5 | -6 | -1.6 | 0.9 | -12 | -0.1 | 2 | 4 | -0.4
14 | C=CCn1c(O)c(Cc2ccc(OCC)cc2)c(=O)[nH]c1=O | 2% | 5 | 4 | -1.8 | 1.2 | -2 | 1.6 | -6 | -9 | 0.9
15 | CC1SC2(CN3CCC2CC3)NC1=O (stereo not drawn) | -2% | nt | nt | nt | nt | 7 | -0.5 | -7 | 1 | 2.8
16 | CCC(C)N1C(=O)/C(=C\c2ccc(N3CCCCCC3)cc2)C(=O)NC1=S (stereo not drawn) | 8% | nt | nt | nt | nt | -5 | -1.1 | -4 | -1 | -2.0
17 | CCN1CCN(C(=O)COc2ccc3c(c2)C(=O)CC2(CCN(C(C)=O)CC2)O3)CC1 | -5% | nt | nt | nt | nt | -18 | 0.8 | -4 | -16 | ?
18 | CCC(c1ccc(C)cc1)N1C(=O)C2C3CCC(O3)C2C1=O (stereo not drawn) | 0% | 8 | 7 | -0.9 | -0.7 | nt | -0.8 | -3 | nt | nt
19 | C=CCN1C(=O)/C(=C/c2cc(C)n(-c3ccccn3)c2C)C(=O)NC1=S | nt | 8 | 8 | 15 | 0.7 | -4 | 0.2 | -5 | -15 | 4.1
20 | CCOP(=O)(OCC)c1cc(C)c(O)c(C(C)(C)C)c1 | 8% | 5 | 14 | 11 | 7.1 | 0 | 0.5 | 4 | 7 | -0.3
21 | CCC(=NCc1ccc2c(c1)OCO2)c1c(O)n(C)c(=O)n(C)c1=O | 15% | nt | nt | nt | nt | 15 | 0.0 | 1 | 5 | -2.2
22 | CC(Cc1ccccc1)NC(N)=O (stereo not drawn) | -16% | 6 | 15 | 1.8 | -1.6 | 4 | 0.1 | -5 | 1 | -2.1
23 | CC(C)CN1CCN(Cc2ccc(F)cc2Cl)CC1CCO (stereo not drawn) | 2% | 5 | 9 | -2.6 | 7.1 | -4 | 0.7 | -6 | 0 | ?
24 | CC(C)c1ccc(NC(=O)CSc2nnc(OC(=O)N(C)C)n2C2CC2)cc1 | nt | -2 | 6 | -0.6 | 1.2 | 35 | 0.5 | -3 | -20 | 1.2
25 | COc1ccc(-n2c(/C=C/c3cccc(F)c3)nc3ccccc3c2=O)c(OC)c1 | -2% | 12 | 17 | -0.3 | -6.4 | -10 | 2.3 | 11 | 8 | -2.5
26 | CCC1(C(=O)c2ccccc2)C2c3ccccc3OC(=O)C21C(C)=O (stereo not drawn) | 1% | 11 | 5 | 1.6 | -1.5 | 5 | ? | -3 | 0 | -1.1
27 | O=[N+]([O-])c1cnc2ccc3ccccc3c2c1 | 11% | -68 | -76 | -31 | 1.0 | 9 | -0.1 | 0 | -5 | 4.2
28 | CCCc1cc(=O)oc2cc(OCC(=O)N3CCN(Cc4ccc5c(c4)OCO5)CC3)ccc12 | nt | -14 | -26 | 6.9 | -2.0 | 21 | -0.5 | nt | -4 | -1.6
29 | COC(=O)C1=C(c2c(C)noc2C)C[C@@H]2CC[C@H]1N2C(=O)NCCOc1ccccc1 | nt | 12 | 22 | 10.0 | -5.4 | nt | -0.3 | -7 | nt | nt
30 | COC(=O)C1=C(c2cc3ccccc3s2)C[C@@H]2CC[C@H]1N2C(=O)NCCO | nt | -16 | -23 | 0.0 | 4.0 | -20 | 0.1 | -12 | 6 | 1.7
31 | CC12CN3CCN(C1)CC(C)(C3)C2=NN | -6% | 16 | 7 | 2.0 | -4.0 | -1 | 1.8 | nt | -2 | 0.7
32 | COc1ccc(N2CCN(CCc3ccncc3)CC2)cc1 | nt | 8 | 11 | -2.2 | 3.6 | 10 | 2.3 | 3 | 5 | 3.2
33 | COC(=O)C1C2c3ccccc3OC1(C)N=c1s/c(=C/c3cn(C)nc3C)c(=O)n12 (stereo not drawn) | -4% | nt | nt | nt | nt | 8 | 0.4 | 3 | 2 | -2.3
34 | Cc1ccc(NC(=O)c2snnc2C)cc1Cl | -4% | 5 | 9 | 5.0 | 3.1 | 9 | -8.1 | 1 | -7 | -1.5
35 | Cc1ccc(/C=C2/Sc3ccc(C(=O)N4CCC5(CC4)OCCO5)cc3NC2=O)cc1 | nt | 2 | 2 | -4.3 | -3.0 | 36 | -0.6 | -5 | -5 | -3.6
36 | C[C@]12CC[C@H]3C(CCC4(O)CC(O)CC[C@]34C=O)C1=CC[C@H]2c1ccc(=O)oc1 (stereo partly drawn) | 3% | -2 | 9 | -1.1 | 1.3 | -2 | 1.1 | -6 | 3 | 2.4
37 | O=C(Cc1ccccc1)N1CCN(Cc2cccnc2)CC1 | 1% | nt | nt | nt | nt | -2 | 0.1 | -5 | 7 | -0.1
38 | Cc1ccc(-n2nc(C)c(C3C(C#N)=C(N)Oc4c3c(=O)oc3ccccc43)c2Cl)cc1 (stereo not drawn) | 11µM* | nt | nt | nt | nt | 3 | nt | nt | 10 | -0.1
39 | c1ccc2c3c([nH]c2c1)CNCC3 | 84µM* | nt | nt | nt | 5.8 | -17 | 0.4 | -1 | -13 | -6.6
40 | COC(=O)CC1NC2CCCCC2NC1=O (stereo not drawn) | -11% | nt | nt | nt | nt | -22 | 0.5 | -1 | -1 | -1.7

Random excerpt: 2 entries already listed.
entry | Molecule | Vif TR-FRET | Ecoli rRNA inh | Ecoli rRNA inh OD600 | Ecoli rRNA inh RFP | MLL AF4-AF9 inh | T cruzi repl | A1 inh | Beta cell apopt | Calb FLC | RanGTP-Impb inh
35 | Cc1ccc(/C=C2/Sc3ccc(C(=O)N4CCC5(CC4)OCCO5)cc3NC2=O)cc1 | nt | 2 | 2 | -4.3 | -3.0 | 36 | -0.6 | -5 | -5 | -3.6
22 | CC(Cc1ccccc1)NC(N)=O (stereo not drawn) | -16% | 6 | 15 | 1.8 | -1.6 | 4 | 0.1 | -5 | 1 | -2.1

Going on with the list.
entry | Molecule | Vif TR-FRET | Ecoli rRNA inh | Ecoli rRNA inh OD600 | Ecoli rRNA inh RFP | MLL AF4-AF9 inh | T cruzi repl | A1 inh | Beta cell apopt | Calb FLC | RanGTP-Impb inh
41 | COc1cccc(C(=O)C2CCCN(Cc3ccc4nonc4c3)C2)c1 (stereo not drawn) | -10% | -27 | -44 | 5.2 | 7.6 | 34 | -0.2 | -2 | 19 | ?
42 | O=C1NC(=S)NC(=O)C1=Cc1ccc(Br)s1 | 29% | 26 | 12 | 4.6 | -3.1 | -24 | 0.2 | 3 | -2 | -0.5
43 | COc1ccccc1CCNC(=O)CCC(=O)N1CC2C[C@@H](C1)Cn1c2cccc1=O | nt | 0 | 15 | -2.0 | -1.9 | -13 | 0.0 | 3 | -2 | -2.2
44 | NC(=O)CN1C2CCC1CC(NC(=O)C1CC1)C2 (stereo not drawn) | 15% | nt | nt | nt | nt | -50 | 0.3 | -5 | 14 | -1.6
45 | CCCn1c(C)cc(C=O)c1C | -5% | 3 | 8 | 6.6 | -0.6 | -11 | 0.7 | -5 | 9 | -4.4
46 | C[C@]12CC[C@@H](O)CC1=CCC1C2CC[C@]2(C)C(=O)[C@H](F)CC12 (stereo partly drawn) | -7% | nt | nt | nt | -4.0 | nt | -1.1 | -4 | nt | nt
47 | COC(=O)C1=C(c2cccc(OCc3ccccc3)c2)C[C@@H]2CC[C@H]1N2C(=O)NCc1ccc(N(C)C)cc1 | nt | 7 | 0 | 6.2 | -23 | nt | -0.3 | 0 | nt | nt
48 | C=CCC1(CN2CCCC2=O)C(=O)NC(=O)NC1=O | 10% | 19 | 19 | 0.6 | nt | -1 | 0.6 | -1 | 13 | ?
49 | O=C1NC(=O)C(=Cc2ccc(N3CCOCC3)o2)C(=O)N1 | ? | 26 | 11 | 4.7 | -1.0 | 0 | -0.1 | 3 | 8 | -13
50 | CCCNC1=C(C)C(=O)C2=C(C1=O)C(COC(N)=O)[C@]1(OC)C3NC3CN21 (stereo partly drawn) | 8.1µM* | -15 | -50 | 6.8 | 6.1 | 27 | 0.8 | -3 | 11 | 0.1
51 | COC(=O)C1=C(c2ccccc2OCc2ccccc2)C[C@@H]2CC[C@H]1N2C(=O)NCc1cccc(F)c1 | nt | -8 | -18 | 0.4 | 0.2 | nt | 0.8 | -2 | nt | nt

Some of the compounds tested, so the mix of outcomes need not match the whole.
